Ecoli growth = blocks Escherichia coli growth | OD600, 23 h; hits give low values | OD600 absorbance (concentration not given with the values) | 330,000 tested, 0.21% active;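 active = OD600 absorbance below the run mean of sample wells minus 3.6 SD, in any replicate, cut at about 0.56 in these data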;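 also: stock transfer was 300 nL into about 60 µL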
Vif TR-FRET = inhibitors of Vif binding to APOBEC3G peptide, primary screen, biochemical, TR-FRET, GST-Vif 1-94, biotin-A3G peptide, dose response retest (AID 1117319); 260,000 tested, 0.57% active; TR-FRET GST-Vif / biotin-A3G peptide binding; higher % means a stronger effect; test concentration not given here; strong numbers were not always called active; inhibition, %; hits with a dose series show IC50 in µM;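 active = above the screen mean plus three standard deviations and confirmed in dose response; inconclusive = results disagree or hit not tested in dose response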;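 also: Vif residues 1-94 fused to GST binding biotinylated APOBEC3G peptide 110-148; 0% = full assay without inhibitor and 100% = GST in place of GST-Vif; retest series ran down from 100 µM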
HNF4A DNA FP = change in binding of human HNF4 alpha to DNA; HNF4a-FITC DNA binding, fluorescence polarization, 1 h; activity change, % at 10 µM; 360,000 tested, 0.3% active; P41235; in the data active = activity change above about 30%, passing the limit was not always enough;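 also: controls were the assay level and a saturating level of protein; the project sought stronger binding though the title names inhibitors; some compounds called inactive have numbers as strong as hits; positive values seem to mean higher polarization but the record does not say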
Target sequence (P41235 whole entry, looked up): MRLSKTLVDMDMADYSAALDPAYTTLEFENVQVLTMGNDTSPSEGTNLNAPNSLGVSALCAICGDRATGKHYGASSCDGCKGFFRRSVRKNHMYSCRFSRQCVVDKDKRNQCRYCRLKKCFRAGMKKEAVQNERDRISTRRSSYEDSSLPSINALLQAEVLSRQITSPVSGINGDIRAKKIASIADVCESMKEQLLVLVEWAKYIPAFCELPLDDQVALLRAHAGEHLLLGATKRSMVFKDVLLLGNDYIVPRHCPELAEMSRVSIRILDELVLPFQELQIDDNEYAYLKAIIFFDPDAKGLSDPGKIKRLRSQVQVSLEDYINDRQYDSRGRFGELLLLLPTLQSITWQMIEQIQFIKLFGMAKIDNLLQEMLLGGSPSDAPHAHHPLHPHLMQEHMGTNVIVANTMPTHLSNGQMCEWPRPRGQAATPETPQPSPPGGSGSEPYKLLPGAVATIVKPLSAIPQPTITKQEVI
FGF22 binding = shifts melting point of recombinant human FGF22. Q9HCT0. recombinant FGF22 thermal shift, SYPRO orange fluorescence; percent of sucrose octasulfate shift, DMSO zero. calls only at 9.99 µM. 340,000 tested, 1.5% active;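 active = melting point raised past a set limit in the mean and every replicate; inconclusive = no clear call; three in four hits are not shown here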
Target sequence (Q9HCT0 whole entry, looked up): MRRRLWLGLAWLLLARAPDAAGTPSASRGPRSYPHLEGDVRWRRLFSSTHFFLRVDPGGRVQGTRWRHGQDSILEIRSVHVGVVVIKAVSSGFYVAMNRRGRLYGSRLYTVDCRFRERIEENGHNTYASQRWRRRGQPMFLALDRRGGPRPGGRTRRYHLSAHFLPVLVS
UCH37 DUB inh = blocks the human deubiquitinase UCH37; Q9Y5K5; purified proteasome/UCH37, Ub-AMC cleavage fluorescence; inhibition, % (test concentration not listed); 330,000 tested, 0.33% active;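 active = mean of two replicates above 20%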;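 also: 0% = compound-free wells with enzyme and 100% = wells lacking proteasome; stock transfer was 100 nL into about 20 µL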
Target sequence (Q9Y5K5 whole entry, looked up): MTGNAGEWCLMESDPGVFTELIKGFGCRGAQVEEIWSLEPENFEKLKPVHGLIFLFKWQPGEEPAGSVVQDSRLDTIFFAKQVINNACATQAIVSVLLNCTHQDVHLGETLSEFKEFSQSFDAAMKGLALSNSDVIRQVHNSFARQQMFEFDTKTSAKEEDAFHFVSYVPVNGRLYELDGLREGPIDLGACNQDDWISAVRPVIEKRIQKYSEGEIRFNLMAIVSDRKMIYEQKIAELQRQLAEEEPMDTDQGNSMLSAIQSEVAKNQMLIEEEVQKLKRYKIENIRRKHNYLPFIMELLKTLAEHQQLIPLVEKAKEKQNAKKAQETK
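Material: human UCH37 enzyme supplied as purified proteasome complex. Measure: % inhibition of Ub-AMC cleavage fluorescence. Medium: pH 7.4 Tris-HCl (50 mM) with ovalbumin, ATP-MgCl2, DTT. Times: 30 min preincubation with enzyme, 25 min cleavage at room temperature. Detection: AMC fluorescence intensity at 355/460 nm.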
MLL AF4-AF9 inh = blocks AF4 peptide binding to human AF9; AlphaScreen, biotin-AF4 peptide binding to FLAG-AF9; inhibition, % at 10 µM; 350,000 tested, 0.47% active;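 active = every replicate reaching a set inhibition limit, whatever the replicate mean, cut at about 25% in these data; inconclusive = mean inhibition reaches that limit but some replicates miss it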;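 also: 0% = plate neutral control median and 100% = total signal loss; the record names both 10 and 1 µM as test concentration; the first replicate is given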
RanGTP-Imp inh = inhibitors of RanGTP-importin-beta interaction, primary screen, biochemical, FRET, CFP-Ran, YFP-importin-beta, homogeneous | cell-free CFP-Ran/YFP-importin-beta FRET ratio | inhibition, % (no concentration beside the values) | 300,000 tested, 1.1% active | AID 2216;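 active = most replicates above 15%; inconclusive = exactly half above 15%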;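 also: 0% = DMSO wells and 100% = Ran loaded with GDP instead of GTP; wells of about 40 µL received 100 nL stock; the first replicate is given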
The depositor's hits bear a star; i = inactive; ? = inconclusive; . = no result given; & = joins results of further samples. Only part of the results is shown; count on the stated rates, not on these rows.

Every second line gives: Vif TR-FRET, Ecoli growth, FGF22 binding, RanGTP-Imp inh, HNF4A DNA FP, MLL AF4-AF9 inh, UCH37 DUB inh
> CC(=O)Nc1cccc(-c2nc3ccccc3s2)c1C
    ., 0.708, i, 1.8, -3.6, -4.2, 3.3
> O=C(COC(=O)c1ccccc1F)NC(=O)NC1CCCC1
    ., 0.706, i, ., -6.3, -4.8, 4.1
> CN1CCN(C(=S)C(=O)Nc2ccc(Br)cc2)CC1
    -46.2%, 0.712, i, -5.1, 1.9, -3.3, 1.5
> CC(C)(C)OC(=O)CC[C@@H](C(=O)N1CCN(C(=O)OC(C)(C)C)CC1)n1cc(C(CO)NC(=O)OC(C)(C)C)nn1 (stereo partly drawn)
    -5.0%, ., i, 4.8, -1.2, 2.1, -0.4
> O=C(c1ccc(Cl)cc1Cl)C1(n2cncn2)Oc2ccccc2C1O (stereo not drawn)
    7.4%, 0.713, ., -1.9, -0.9, ., 1.8
> O=[N+]([O-])c1ccccc1C=CC=NN=Cc1ccccc1O
    -4.0%, ., i, ., -3.3, -0.4, .
> CCOc1ccccc1N/C=C/C(=O)C(C)(C)C
    ?, 0.656, ., ?, 4.2, ., 1.2
> Cn1ccnc1C(=O)c1cc(SCC(=O)NCc2ccccc2)nc2ccccc12
    -10.9%, 0.661, i, -1.5, 3.5, -1.9, 1.5
> O=C1CCCC2=C1C(c1cccs1)n1ncnc1N2 (stereo not drawn)
    76.3%, 0.658, ., 2.0, -2.1, ., 0.8
> COc1ccc(-c2[nH]nc3c2C(c2ccncc2)C(C#N)=C(N)O3)cc1 (stereo not drawn)
    2.0%, 0.716, ., -8.1, -3.4, ., 7.0
> COc1ccc(C(c2sc3ncnn3c2O)N2CCN(c3ccccc3F)CC2)cc1OC (stereo not drawn)
    -8.1%, 0.726, i, -1.6, 4.4, -11.1, 3.8
> CCOC(=O)C1C(=O)CC(O)(c2ccccc2)CC1c1ccccc1 (stereo not drawn)
    0.6%, 0.804, ., 3.1, -1.1, ., -0.9
> Cc1ccc2[nH]c(=O)c(-c3noc(C(C)C)n3)cc2c1
    1.7%, 0.711, i, 4.4, 3.0, 3.1, -86.3
> O=C1N[C@@H](Cc2ccccc2)C(=O)N2[C@H]1C[C@]1(Br)c3ccccc3N(S(=O)(=O)c3ccccc3)[C@H]21
    ., ., i, -1.4, 5.7, 1.3, 5.3
> NC(N)=NS(=O)(=O)c1ccc(N/C=C/C(=O)c2ccc(Cl)c(Cl)c2)cc1
    3.8%, 0.699, i, 0.0, 0.5, 0.6, -13.3
> COc1ccc(-c2cnc3c(-c4ccc(F)cc4)cnn3c2N)cc1
    -1.5%, 0.74, i, -3.2, -2.2, 5.0, -412.6
> Oc1ccc(C[C@H]2CNCCN2CCc2cc(C(F)(F)F)cc(C(F)(F)F)c2)cc1
    ., ., ., 0.3, 5.8, 2.6, 1.8
> CC(OC(=O)c1ccccc1C(=O)N(C)c1ccccc1)C(=O)Nc1ccc(C(N)=O)cc1 (stereo not drawn)
    -17.8%, 0.724, i, 3.4, -0.5, ?, 0.9
> CCC(c1nnnn1-c1c(C)cccc1C)N1CCN(c2ccccn2)CC1 (stereo not drawn)
    ., ., i, ., -0.7, 1.8, .
> CCCCOc1cccc(C2/C(=C(\O)c3ccc4c(c3)OCCO4)C(=O)C(=O)N2CCN2CCOCC2)c1 (stereo not drawn)
    ., 0.709, i, 1.1, -5.5, -8.0, 6.9
> Cc1cc(C(=O)COc2ccccc2[N+](=O)[O-])c(C)n1-c1cccc(S(=O)(=O)N2CCOCC2)c1
    ., 0.689, ., 4.1, 0.4, ., 4.5
> C[C@H](CO)N1C[C@H](C)[C@@H](CN(C)S(C)(=O)=O)Oc2ccc(NC(=O)C3CC3)cc2C1=O
    ., ., i, ., -1.4, -1.8&-1.5, 1.2
> S=C(Nc1ccccc1Cl)N(CCCN1CCOCC1)Cc1ccco1
    ., ., ., 2.8, 2.1, ., 3.9
> O=C(NCc1ccccc1)c1cc(S(=O)(=O)N2CCC3(CC2)OCCO3)ccc1F
    -0.9%, 0.686, ., ., 5.8, ., 4.9
> Cc1cc2c(cc1C)N(Cc1ccc(Cl)cc1)C1=NCCCN12
    ., 0.664, i, -1.2, 3.3, 5.6, 6.8
> Nn1c(Cc2ccccc2)n[nH]c1=S
    -2.2%, 0.681, i, 0.2, 2.0, -3.5, 2.2
> C=CCc1cc(Cl)ccc1OCCCNC(C)CC (stereo not drawn)
    -17.6%, ., ., 2.0, -3.8, ., .
> COc1ccc(NC(=O)CCCCCN2C(=O)c3ccccc3C2=O)c(OC)c1
    ., 0.703, i, -5.4, 2.5, 1.8, -0.5
> Cc1csc(NC(=O)c2cnccn2)n1
    ?, 0.702, ., 4.8, -2.8, ., 7.0
> O=C(Nc1ccccc1)N1CCN2C(=O)c3ccccc3C12c1ccccc1 (stereo not drawn)
    -0.1%, 0.754, ., 3.6, 0.8, ., 1.0
> O=C(CN1CCN(c2cccc(C(F)(F)F)c2)CC1)Nc1cccc(C(F)(F)F)c1
    -2.0%&12.1%, 0.727, ., -6.1, -0.3, ., 3.7
> Cc1ccc(S(=O)(=O)c2ccc(C)cc2)cc1
    1.2%, 0.695, i, -1.4, 4.4, -1.5, 2.2
> CC1C(=O)N(Cc2cn(CC3CCCCC3)nn2)CCS(=O)(=O)N1Cc1ccc(-c2ccncc2)cc1 (stereo not drawn)
    ., ., i, ., -0.1, -0.2, .
> CCOC(=O)c1ccc(NC(=O)N2CCc3ccccc3C2)cc1
    -1.0%, 0.687, i, 0.6, -0.5, 0.0, 1.5
> O=C(O)c1ccc(OS(=O)(=O)c2ccc(Cl)s2)cc1
    -4.1%, 0.707, i, ., -5.2, -1.2, -2.2
> Cc1cc(NC(=O)Cn2ccc([N+](=O)[O-])n2)no1
    ., 0.673, i, 0.4, -0.1, 3.3, 0.4
> O=C(NCC1CCCO1)c1cc(-c2ccc(Cl)cc2Cl)on1 (stereo not drawn)
    -4.9%, 0.719, ., -3.0, 12.9, ., 1.2
> CC(=O)Nc1ccccc1NC(=O)COc1cccc2ccccc12
    -3.6%, 0.664, i, 2.8, -3.8, -2.4, -0.4
> Cn1c(=O)c2c(ncn2CC(=O)Nc2nccs2)n(C)c1=O
    10.4%, 0.669, i, -2.9, -0.2, -1.8, 1.9
> CC(C)NC(=O)c1cnn2c1NC(c1cccs1)CC2C(F)(F)F (stereo not drawn)
    2.8%, 0.698, ., 2.8, -1.6, ., 5.2
> COc1ccc(/C=C/c2nc(-c3ccccc3)cc(=O)[nH]2)cc1
    -6.5%, 0.713, i, -3.8, 3.1, -3.6, -99.0
> O=C1c2oc3ccccc3c(=O)c2C(c2cccc(F)c2)N1CCCO (stereo not drawn)
    -2.7%, 0.779, ., 1.9, 1.2, ., 3.1
> CCCCn1c(N)c(N(Cc2ccccc2OC)C(=O)C(C)Oc2ccc(Cl)cc2)c(=O)[nH]c1=O (stereo not drawn)
    ., 0.705, i, 2.1, -1.5, -1.4, 2.7
> CCCc1nc2oc3c(Cl)ncnc3c2c2c1CCCC2
    -7.2%, 0.751, i, 0.2, 7.5, 0.8, 2.3
> Cc1nn(C(C)C(=O)NCC2CCCO2)c(C)c1[N+](=O)[O-] (stereo not drawn)
    0.0%, 0.717, i, 1.3, -0.6, 1.6, 1.7
> Cc1ccccc1N1CC(=O)Nc2c(oc3nc(-c4ccccc4)cc(C)c23)C1=O
    9.3%, 0.677, i, 5.6, -1.8, -0.7, -23.8
> Cc1cccnc1NC(=O)CNC(=O)C12CC3CC(CC(Cl)(C3)C1)C2
    3.8%, 0.694, i, 2.8, 4.4, -0.7, 2.6
> CC(C)c1ccc(S(=O)(=O)N2CCN(C(=O)CCNC(=O)Nc3ccccc3)CC2)cc1
    ., 0.646, i, ., -1.6, ?, -0.6
> Cc1cccc(COc2ccc(/C=N/NC(=O)c3nnn(-c4nonc4N)c3COc3ccc(F)cc3)cc2)c1
    -12.1%, ., i, -1.1, 2.5, -13.0, .
> COC(=O)COc1ccc(-c2nccc(-c3ccccn3)n2)cc1
    ., 0.657, i, -0.2, -1.8, -3.1, 0.3
> CCCNC(=S)Nc1ccc2nc(-c3ccccn3)c(-c3ccccn3)nc2c1
    26.8%, 0.665, ., 27.5*, -4.7, ., -20.6
> O=C1CCCN1c1cc(Cl)ccc1Cl
    3.6%, 0.687, ., 3.2, 3.6, ., 2.7
> O=C(c1ccccn1)c1conc1C(=O)c1ccc(Br)cc1
    2.8%, 0.637, ., 4.4, -1.0, ., 1.7
> Cc1ccc(S(=O)(=O)N(C)C)cc1NC(=O)CSc1nc2ccccc2[nH]1
    13.4%, 0.719, ., -1.6, 0.4, ., 2.3
> CCCCNCc1cc(Br)c(OCc2cccs2)c(OC)c1
    -4.0%, 0.605, ., -1.2, -0.5, ., 1.8
> N#C/C(=C\c1ccc(OCCN2CCOCC2)cc1)C(=O)Nc1ccccc1F
    1.5%, 0.726, i, -0.5, -0.3, -1.8, 6.6
> CCN(CC(=O)NCCCN1CCOCC1)S(=O)(=O)c1cc(Cl)ccc1Cl
    ., 0.676, i, -0.4, -2.5, -1.0, 1.3
> COc1cc2cnc(Cl)nc2cc1OC
    -3.7%, 0.662, ., 1.2, 0.4, ., -7.5
> C[C@@H]1CN([C@H](C)CO)C(=O)CCCn2cc(nn2)CO[C@H]1CN(C)S(C)(=O)=O
    5.9%, ., i, ., -4.2, -2.1&-0.3&-0.6, .
> O=C(Nc1ccc2oc(-c3cccc4ccccc34)nc2c1)c1ncn[nH]1
    -3.9%, 0.681, ., ?, 2.8, ., -64.0

Additional compounds:
Every second line gives: Vif TR-FRET, Ecoli growth, FGF22 binding, RanGTP-Imp inh, HNF4A DNA FP, MLL AF4-AF9 inh, UCH37 DUB inh
> C=CCn1c(SCC(=O)Nc2ccc(NC(=O)c3ccco3)c(OC)c2)nnc1-c1ccncc1
    24.6%&-10.9%, 0.703, ., 0.7, 1.5, ., 6.1
> CC(=O)OC[C@]1(OC(C)=O)C[C@@]23CC[C@H]4[C@@](C)(CCC[C@@]4(C)C(=O)O)[C@@H]2CC[C@@H]1C3
    6.9%, ., i, -2.5, -3.3, -24.1, 4.5
> Cc1c(C(=O)OCC(C)C)[nH]c2c1C(=O)CC(c1ccco1)C2 (stereo not drawn)
    1.2%, ., i, 6.0, -2.4, -0.8, .
> CCN(CC)c1ccc(/C=N/NC(=O)c2c(Cl)cnn2C)c(O)c1
    6.4%, ., ., 22.1*, 3.1, ., .
> O=C(CSc1c2c(nc3cc(Cl)ccc13)CCCC2)NCCN1CCOCC1
    7.0%, 0.651, i, 6.4, 2.1, -3.6, 11.3
> Cc1ccc(NC(=O)COC(=O)Cc2ccsc2)cc1S(=O)(=O)N(C)C
    ?, 0.687, i, 4.2, 0.3, ?, 2.0
> OCCN(Cc1ccccc1)C(=S)NC1CCCCC1
    -1.9%, 0.682, i, 6.2, -2.7, 0.4, -0.7
> CCc1cc2c3c(c1)C1(C(=O)N3C(C)(C)C=C2C)C(C#N)=C(N)Oc2[nH]c(=O)[nH]c(=O)c21 (stereo not drawn)
    -1.9%, 0.682, i, -1.9, 9.8, 10.2, 3.9
> O=C(NCC1CCCCC1)C1CCCN(C(=O)NC2CCCCC2)C1 (stereo not drawn)
    -0.1%, 0.679, ., -0.6, 0.2, ., 0.4
> CCN1CCN(c2cc(C)nc(-c3ccccc3O)n2)CC1
    -1.2%, 0.642, i, -6.6, 1.6, 1.6, -8.2
> CCOC(=O)c1c(NC(=O)C2(C)Cc3ccccc3C(=O)O2)sc2c1CCCC2 (stereo not drawn)
    -9.4%, 0.695, i, 7.2, 4.1, ?, -2.1
> CCCOc1cccc(C2C(C(=O)c3ccco3)=C(O)C(=O)N2CCN(CC)CC)c1 (stereo not drawn)
    24.9%, 0.728, ., 2.3, 5.0, ., 9.0
> Cc1ccc2c(c1)c1c(n2CC(O)CN2CCCCC2C)CCCC1 (stereo not drawn)
    ?, 0.671, i, 0.3, 2.6, 12.1, 5.3

Screening data from PubChem BioAssay.
